rRNA inh HTS: inhibitors of bacterial rRNA selective over humanized ribosomes; E. coli WT GFP vs humanized-ribosome RFP mutants, fluorescence, 24 h; stronger effect = lower value; DMSO median 0, no signal -100; GFP signal change (wild-type ribosome), % (no concentration beside the values); 1.6% of 350,000 active;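 active = significant combined selectivity score with lowered wild-type GFP, culture density cut under 30%, mutant RFP and density less affected; inactive = any of these conditions unmet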; note: one replicate is shown; some compounds called inactive have numbers as strong as hits
FGF22 binding: shifts melting point of recombinant human FGF22. 1.5% of 340,000 active. Q9HCT0. calls only at 9.99 µM. recombinant FGF22 thermal shift, SYPRO orange fluorescence; percent of sucrose octasulfate shift, DMSO zero. AID 651658;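 active = melting point raised past a set limit in the mean and every replicate; three in four hits are not shown here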
Target sequence (Q9HCT0 whole entry, looked up): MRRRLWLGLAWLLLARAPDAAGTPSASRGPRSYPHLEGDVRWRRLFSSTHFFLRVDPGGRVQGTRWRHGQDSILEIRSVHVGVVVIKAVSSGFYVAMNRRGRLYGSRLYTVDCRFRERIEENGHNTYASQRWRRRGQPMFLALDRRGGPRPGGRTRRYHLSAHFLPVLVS
AF4-AF9 inh: inhibitors of human MLL-AF4/AF9 interaction; AID 651704; AlphaScreen, biotin-AF4 peptide binding to FLAG-AF9; inhibition, % at 10 µM; P42568; 0.47% of 350,000 active;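 active = every replicate reaching a set inhibition limit, whatever the replicate mean, cut at about 25% in these data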;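 note: 0% = plate neutral control median and 100% = total signal loss; the record names both 10 and 1 µM as test concentration; the first replicate is given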
Target sequence (P42568 whole entry, looked up): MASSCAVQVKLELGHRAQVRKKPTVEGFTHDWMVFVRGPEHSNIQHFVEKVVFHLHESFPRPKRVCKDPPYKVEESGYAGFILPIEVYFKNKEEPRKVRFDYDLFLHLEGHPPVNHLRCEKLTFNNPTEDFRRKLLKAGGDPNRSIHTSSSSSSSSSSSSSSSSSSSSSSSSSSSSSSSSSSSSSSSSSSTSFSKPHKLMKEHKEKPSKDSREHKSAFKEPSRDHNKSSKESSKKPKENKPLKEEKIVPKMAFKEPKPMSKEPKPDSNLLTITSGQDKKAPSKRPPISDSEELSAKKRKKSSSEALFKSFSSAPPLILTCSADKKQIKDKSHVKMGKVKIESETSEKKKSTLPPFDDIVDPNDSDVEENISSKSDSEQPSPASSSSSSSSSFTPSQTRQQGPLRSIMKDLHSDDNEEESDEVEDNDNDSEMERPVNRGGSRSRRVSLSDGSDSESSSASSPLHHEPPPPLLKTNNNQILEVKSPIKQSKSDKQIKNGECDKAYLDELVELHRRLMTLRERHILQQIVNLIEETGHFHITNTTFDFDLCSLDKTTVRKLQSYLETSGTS
rRNA inh HTS OD600: also measured in rRNA inh HTS; calls as there; OD600 change, %; measured here: OD600 growth;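 optical density of the mix in the first replicate; 0 = DMSO median and -100 = no signal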
rRNA inh HTS RFP: second read-out of rRNA inh HTS, no call of its own (marks repeat the call); RFP signal change, %; measured here: RFP humanized mutant strains;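 first replicate; 0 = DMSO median and -100 = no signal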
* hit, by the source's call; i = inactive. These rows are one share of the data (hit frequency here may not be typical).

rRNA inh HTS,rRNA inh HTS OD600,rRNA inh HTS RFP,FGF22 binding,AF4-AF9 inh,Structure
-7.9,20.8,4.1,i,5.7,CCOC1=CC2=C(C(=O)C(Cl)=CC2=O)[C@@H]2CN(S(=O)(=O)c3ccc(C)cc3)[C@@H](c3ccccc3)[C@H]12
-0.1,0.8,-2.5,i,0.9,COc1ccc(S(=O)(=O)N(C)C[C@@H]2Oc3ccc(NC(=O)NC(C)C)cc3CC(=O)N([C@@H](C)CO)C[C@@H]2C)cc1
2.3,0.5,0.3,i,3.7,O=C(NCCN1CCN(Cc2ccccc2)CC1)c1ccc(CS(=O)(=O)c2c(Cl)cccc2Cl)o1
0.4,-9.0,0.3,i,-3.7,C[C@H]1CN([C@@H](C)CO)C(=O)c2cc(-c3ccc(F)cc3)cnc2O[C@@H]1CN(C)C(=O)NC1CCCC1
14.8,29.8,5.1,i,-6.7,COc1cccc(CNC(=O)C2(C)CCCN2C(=O)C(C)C)c1 (centres undefined)
1.4,6.8,1.4,i,3.1,CCNC[C@@H]1[C@@H](c2ccccc2)[C@@H](CO)N1C(=O)Cc1ccccn1
1.8,-6.0,-0.7,i,2.2,COc1ccc(NC(=O)Nc2ccc3c(c2)C(=O)N([C@@H](C)CO)C[C@@H](C)[C@@H](CN(C)C)OCCCC[C@@H](C)O3)cc1
-21.7,-24.4,0.8,i,4.8,N#CCc1ccc(OCCCN2CCC(C(O)(c3ccccc3)c3ccccc3)CC2)cc1
3.0,3.8,1.8,i,-1.3,CO[C@H]1CN(C)C(=O)c2cc(NC(=O)c3cccc(F)c3)ccc2OC[C@@H](C)N(C)C[C@@H]1C
1.2,14.4,-1.6,i,-8.0,CCC(=O)N1CCCCN2[C@H](CO)[C@H](c3ccc(-c4cccnc4)cc3)[C@@H]2C1
5.7,5.8,1.5,i,-17.4,O=C(C[C@@H]1C[C@H]2c3cc(NC(=O)Nc4ccccc4F)ccc3O[C@H]2[C@@H](CO)O1)NC1CCCCC1
7.2,26.4,3.9,i,0.1,CC(=O)Nc1cccc(Oc2nc(NC(C)C)nc3cc(-c4ccccc4)sc23)c1
3.1,-5.9,-1.0,i,-1.0,O=C(C[C@@H]1CC[C@H](NC(=O)Nc2cc(F)ccc2F)[C@H](CO)O1)NCc1ccccn1
0.5,-5.2,-2.0,i,-0.4,CC(C)NC(=O)Nc1ccc2c(c1)C(=O)N([C@@H](C)CO)C[C@@H](C)[C@@H](CN(C)Cc1ccc(C(F)(F)F)cc1)O2
-1.7,3.5,-4.3,i,5.3,C[C@H]1CN([C@@H](C)CO)C(=O)c2cccc(NC(=O)C3CCCCC3)c2O[C@H]1CN(C)C(=O)Nc1ccc(C(F)(F)F)cc1
4.1,14.4,-3.7,i,-2.0,C[C@@H]1CN([C@H](C)CO)C(=O)c2cccc(NC(=O)c3cnccn3)c2O[C@H]1CN(C)C(=O)Nc1ccccc1
2.1,7.3,-1.1,i,-0.1,C[C@H]1CN([C@@H](C)CO)C(=O)c2cc(-c3ccc(F)cc3)cnc2O[C@H]1CN(C)C(=O)Nc1ccccc1F
1.6,11.0,-3.3,i,-0.4,O=C(Nc1ccc2c(c1)[C@H]1C[C@@H](CC(=O)N3CCOCC3)O[C@H](CO)[C@H]1O2)C1CCOCC1
-11.2,-11.0,12.4,i,13.9,CO[C@@H]1CN(C)C(=O)c2ccc(NC(=O)Nc3cccc(Cl)c3)cc2OC[C@@H](C)NC[C@H]1C
1.0,4.4,0.0,i,-0.9,Cc1noc(C)c1S(=O)(=O)N(C)C[C@@H]1Oc2ccc(NS(=O)(=O)c3cn(C)cn3)cc2CC(=O)N([C@H](C)CO)C[C@@H]1C
1.6,5.3,-1.6,i,-3.7,Cc1ccc(S(=O)(=O)N[C@@H]2CC[C@@H](CCn3cc(-c4cccnc4)nn3)O[C@@H]2CO)cc1
-14.7,-49.2,-10.4,i,1.0,COc1cccc(CN2CCC2(C)C(=O)Nc2ccc3c(c2)OCO3)c1F (centres undefined)
5.3,10.4,-1.6,i,-0.8,CO[C@H]1CN(C)C(=O)c2cc(NC(=O)Nc3c(C)noc3C)ccc2OC[C@@H](C)N(CC2CC2)C[C@H]1C
-2.2,-18.8,0.4,i,3.3,Cc1noc(C)c1NC(=O)Nc1ccc2c(c1)C(=O)N([C@@H](C)CO)C[C@H](C)[C@H](CN(C)Cc1ccc(Cl)c(Cl)c1)O2
2.8,4.4,1.9,i,-0.9,C[C@@H](NC(=O)C[C@@H]1C[C@H]2c3cc(NS(C)(=O)=O)ccc3O[C@H]2[C@@H](CO)O1)c1ccccc1
-0.3,4.9,-0.7,i,-0.4,CN1C(=O)c2cc(NS(=O)(=O)c3ccc(Cl)cc3)ccc2OC[C@@H]2O[C@H](CC(=O)O)CC[C@@H]21
-0.2,-11.7,-0.6,i,-0.7,C[C@@H]1CN([C@H](C)CO)C(=O)Cc2cc(NC(=O)C3CC3)ccc2O[C@H]1CN(C)S(=O)(=O)c1cccs1
-3.9,3.8,8.1,i,5.3,COc1ccc(-c2cc(NC=O)c3ncc(-c4ccc(OC)c(OC)c4)n3c2)cc1OC
-10.5,-7.4,2.5,i,0.9,O=C(C[C@@H]1C[C@@H]2c3cc(NC(=O)c4ccc5c(c4)OCO5)ccc3O[C@@H]2[C@@H](CO)O1)NCc1cc(F)ccc1F
1.6,5.9,0.3,i,-3.6,C[C@@H]1CN([C@H](C)CO)C(=O)c2cc(N(C)C)ccc2O[C@H]1CN(C)C(=O)Nc1ccc(F)cc1
-2.5,0.5,-1.2,i,-3.1,O=C(OCc1cn([C@H]2C[C@H](c3ccc(Cl)cc3)N(C(=O)c3cccs3)C[C@@H]2O)nn1)c1ccccc1
0.1,-2.5,0.0,i,-0.9,O=C(Nc1ccccc1F)N[C@@H]1C=C[C@H](CC(=O)N2CCCCC2)O[C@H]1CO
1.0,0.7,1.7,i,-1.6,C[C@H](CO)N1C[C@H](C)[C@H](CN(C)C(=O)Nc2ccc(C(F)(F)F)cc2)OCCCC[C@H](C)Oc2ccc(NC(=O)c3ccncc3)cc2C1=O
0.6,1.5,-1.4,i,-0.5,O=C(C[C@H]1C=C[C@@H](NC(=O)c2cccc(F)c2)[C@H](CO)O1)NCCN1CCCC1
-1.2,-2.2,-1.0,i,12.9,COc1ccc2c3c(n(C)c2c1)[C@H](CO)NCC31CCN(Cc2ccccc2F)CC1
5.2,-0.7,1.3,i,3.9,CO[C@H]1CN(C)C(=O)c2cc(NC(=O)Nc3ccc4c(c3)OCO4)ccc2OC[C@@H](C)NC[C@H]1C
-1.5,15.1,0.8,i,-1.6,COCC(=O)N1CCCCN2[C@@H](CO)[C@H](c3ccc(C#Cc4cccnc4)cc3)[C@@H]2C1
-10.0,-20.2,-1.7,i,-7.8,C[C@@H]1CN([C@H](C)CO)C(=O)c2cccc(NC(=O)Nc3ccccc3)c2O[C@H]1CN(C)Cc1ccc2c(c1)OCO2
2.0,4.2,-0.2,i,-2.6,O=C(C[C@@H]1C=C[C@@H](NC(=O)c2ccccc2)[C@H](CO)O1)NCCc1ccncc1
1.2,4.5,1.8,i,-4.3,CCS(=O)(=O)NCC[C@@H]1CC[C@@H](NS(=O)(=O)c2cccc(Cl)c2)[C@@H](CO)O1
11.5,5.6,15.9,i,1.1,Cc1c(C(=O)NCc2ccc([N+](=O)[O-])cc2)sc(=O)n1Cc1ccc2c(c1)OCO2
6.0,16.6,-1.5,i,-1.4,COc1ccc2c3c([nH]c2c1)[C@@H](CO)N(C(=O)c1ccncc1)CC31CCN(C)CC1
2.7,2.4,-2.6,i,-0.8,Cc1ccc(S(=O)(=O)N[C@@H]2CC[C@H](CCNC(=O)Cc3ccccn3)O[C@H]2CO)cc1
25.7,48.2,48.5,i,0.2,Cn1c(-c2ccccc2)c(Sc2ccccc2)c2cc(-c3ccc4cc[nH]c4c3)ccc21
-12.9,-16.4,-2.1,i,0.9,Cc1ccc(C(=O)Nc2cccc(S(=O)(=O)N3CCCCC3)c2)cc1S(=O)(=O)N1CCOCC1
-0.7,-3.8,2.1,i,5.9,O=C(Nc1ccn(CCCNCC2CCCCC2)c(=O)n1)OCc1ccccc1
-4.0,-4.5,3.0,i,3.3,COc1ccc(NC(=O)Nc2ccc3c(c2)CC(=O)N([C@H](C)CO)C[C@H](C)[C@H](CN(C)Cc2ccc(Oc4ccccc4)cc2)O3)cc1
2.8,-18.6,9.6,i,5.1,C[C@H]1CN([C@@H](C)CO)C(=O)Cc2cc(NS(=O)(=O)c3cn(C)cn3)ccc2O[C@H]1CN(C)Cc1ccc(-c2ccccc2)cc1
-1.8,-5.4,-2.5,i,-1.0,C[C@H]1CCCCO[C@@H](CN(C)C(=O)Nc2ccccc2)[C@@H](C)CN([C@@H](C)CO)C(=O)c2cc(NS(=O)(=O)c3cn(C)cn3)ccc2O1
0.4,-0.5,-1.8,i,-1.7,O=C(C[C@@H]1C=C[C@@H](NC(=O)c2ccccc2)[C@H](CO)O1)NCc1ccc(Oc2ccccc2)cc1

Next part
rRNA inh HTS,rRNA inh HTS OD600,rRNA inh HTS RFP,FGF22 binding,AF4-AF9 inh,Structure
-1.1,2.5,0.9,i,-5.3,Cc1noc(C)c1NC(=O)N(C)C[C@@H]1OCc2ccccc2-c2c(n(C)c3ccccc23)C(=O)N([C@H](C)CO)C[C@@H]1C
-2.9,-1.5,-2.8,i,-3.8,CC(C)NC(=O)N(C)C[C@@H]1Oc2ccc(NC(=O)NC3CCCCC3)cc2CC(=O)N([C@H](C)CO)C[C@@H]1C
0.0,10.7,-2.5,i,-4.6,C[C@H]1CN([C@@H](C)CO)C(=O)c2cc(C3=CCCC3)cnc2O[C@H]1CN(C)Cc1ccccn1
-2.0,-25.3,3.5,i,0.3,CC1(C(=O)N2CCCCC2)CCN1C(=O)c1ccccc1CCc1ccccc1 (centres undefined)
-5.4,-11.8,-3.3,i,-0.2,C[C@@H]1CN([C@@H](C)CO)C(=O)c2cc(NS(C)(=O)=O)ccc2O[C@@H](C)CCCCO[C@H]1CN(C)S(=O)(=O)c1ccc(Cl)cc1
-2.0,-0.2,1.2,i,1.0,Cc1ccc(S(=O)(=O)N(C)C[C@H]2OCCCC[C@H](C)Oc3ccc(NS(=O)(=O)c4ccc(F)cc4)cc3C(=O)N([C@H](C)CO)C[C@@H]2C)cc1
-59.4,-79.5,-17.6,i,3.0,O=C(Nc1ccc(Cl)c(Cl)c1)N[C@@H]1CC[C@H](CCNC(=O)c2ccc(F)cc2)O[C@H]1CO
-0.2,-2.8,-4.0,i,-5.5,O=C(C[C@H]1CC[C@H]2[C@@H](COC[C@H](O)CN2C(=O)c2cnccn2)O1)NCc1ccc(Cl)cc1
0.8,-1.1,0.7,i,0.2,CCCNC(=O)N1C[C@@H](C)[C@H](OC)CN(C)C(=O)c2ccc(NC(=O)C3CCC3)cc2OC[C@@H]1C
4.0,4.1,-0.7,i,9.2,CNC[C@@H]1OCCCC[C@H](C)Oc2ccc(NC(=O)Nc3ccc4c(c3)OCO4)cc2C(=O)N([C@@H](C)CO)C[C@H]1C
-1.1,-2.2,2.4,i,0.0,COCC(=O)N1CCC2(CC1)CN(C(=O)Nc1ccccc1F)[C@@H](CO)c1c2c2ccc(OC)cc2n1C
-2.8,-9.6,1.5,i,1.4,Cc1ccc(S(=O)(=O)N(C)C[C@H]2Oc3ccc(NS(=O)(=O)c4c(C)noc4C)cc3CC(=O)N([C@@H](C)CO)C[C@H]2C)cc1
-2.8,-9.8,-1.2,i,0.7,Cc1ccc(S(=O)(=O)N(C)C[C@H]2Oc3ccc(NC(=O)Cc4ccccc4)cc3C(=O)N([C@@H](C)CO)C[C@@H]2C)cc1
3.3,2.4,-0.7,i,4.9,O=C1NC2c3c(I)sc(I)c3C(=O)C2O1 (centres undefined)
1.9,-3.0,3.8,i,4.1,C[C@H](CO)N1C[C@H](C)[C@H](CN(C)Cc2ccc(Cl)c(Cl)c2)Oc2ccc(NS(=O)(=O)c3ccc(Cl)cc3)cc2C1=O
-20.1,-23.1,-1.1,i,-7.6,COc1ccc(NC(=O)C[C@H]2C(=O)N(c3ccccc3)C[C@@H]2Cc2ccccc2)cc1
3.0,10.6,3.3,i,-2.7,Cc1noc(C)c1NC(=O)Nc1ccc2c(c1)C(=O)N([C@H](C)CO)C[C@@H](C)[C@H](CN(C)Cc1ccncc1)OCCCC[C@@H](C)O2

In the list so far, these have a thiophene ring, fused or not:
rRNA inh HTS,rRNA inh HTS OD600,rRNA inh HTS RFP,FGF22 binding,AF4-AF9 inh,Structure
7.2,26.4,3.9,i,0.1,CC(=O)Nc1cccc(Oc2nc(NC(C)C)nc3cc(-c4ccccc4)sc23)c1
-0.2,-11.7,-0.6,i,-0.7,C[C@@H]1CN([C@H](C)CO)C(=O)Cc2cc(NC(=O)C3CC3)ccc2O[C@H]1CN(C)S(=O)(=O)c1cccs1
-2.5,0.5,-1.2,i,-3.1,O=C(OCc1cn([C@H]2C[C@H](c3ccc(Cl)cc3)N(C(=O)c3cccs3)C[C@@H]2O)nn1)c1ccccc1
3.3,2.4,-0.7,i,4.9,O=C1NC2c3c(I)sc(I)c3C(=O)C2O1 (centres undefined)
